# Bioassay records: PubChem BioAssay, National Center for Advancing Translational Sciences (NCATS)
# CtBP-E1A inh = qHTS Assay for Inhibitors of the CtBP/E1A Interaction; CtBP / adenovirus E1A interaction (AlphaScreen); AlphaScreen GST-E1A/His-CtBP binding, 1536-well; hits give low values; control for the full effect not named in the record; activity change, % (test concentration not listed); AID 651724, 2012; 340,000 compounds, 0.49% hits; in the data active means activity change below about -65%; inconclusive means about -30% to -65%; inactive means above about -30%; further: on the % scale 0 is the no-effect control and ±100 the full control effect
#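 Steps: dispense buffer (Tris pH 8.0, NaCl 300 mM, TCEP 1 mM, BSA, Tween 20); add 5X protein mix (GST-E1A, His-CtBP, 125 nM each); pin 23 nL compound; 2 h at 37 °C, dark; add 5X beads (50 ug/mL); 1 h; read.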
# TRPML1 inh = qHTS for Inhibitors of the Human Mucolipin Transient Receptor Potential 1 (TRPML1); Mucolipin-1 (Homo sapiens), Q9GZU1; TRPML1-inducible cells, Ca2+ dye fluorescence, FDSS; hits give low values; inhibition of EC80 agonist-evoked calcium signal; activity change, negative = inhibition, % (concentration not given with the values); 390,000 compounds, 0.02% hits; AID 624415, 2012; in the data active means activity change below about -50%; inconclusive means about -30% to -50%; inactive means above about -30%;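 further: stimulus is agonist 54-4 at its EC80 concentration; on the % scale 0 is the no-effect control and ±100 the full control effect; the text of the record puts the active cut at -80%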
# Target sequence (Q9GZU1 whole entry, looked up): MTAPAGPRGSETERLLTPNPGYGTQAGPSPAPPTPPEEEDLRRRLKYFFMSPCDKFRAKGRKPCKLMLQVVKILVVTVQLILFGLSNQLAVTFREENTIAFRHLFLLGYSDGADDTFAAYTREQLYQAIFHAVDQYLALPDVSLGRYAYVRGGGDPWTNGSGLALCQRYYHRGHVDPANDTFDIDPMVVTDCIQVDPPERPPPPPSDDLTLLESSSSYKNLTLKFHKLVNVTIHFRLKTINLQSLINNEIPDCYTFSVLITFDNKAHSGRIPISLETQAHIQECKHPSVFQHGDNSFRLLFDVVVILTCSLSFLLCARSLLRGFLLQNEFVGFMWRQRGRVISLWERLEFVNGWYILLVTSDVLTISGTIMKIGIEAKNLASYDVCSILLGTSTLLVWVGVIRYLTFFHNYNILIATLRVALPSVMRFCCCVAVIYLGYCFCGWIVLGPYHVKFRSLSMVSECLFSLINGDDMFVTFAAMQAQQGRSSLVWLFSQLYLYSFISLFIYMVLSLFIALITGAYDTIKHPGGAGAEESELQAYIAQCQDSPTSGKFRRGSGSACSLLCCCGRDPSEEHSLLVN
#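 TRPML1-DL cells, Tet-induced overnight (~16 h, 37 °C) at 1,500 cells/well, were loaded with Ca8 no-wash dye plus quencher for 45-90 min at room temperature. Compounds were pinned during FDSS kinetic reading; agonist 54-4 at EC80 (4 uM final) then added.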
# Six1-Eya2 inh = qHTS Assay for Inhibitors of the Six1/Eya2 Interaction | Homeobox protein SIX1 (Homo sapiens) + Protein phosphatase EYA2 (Homo sapiens), … | AlphaScreen GST-Six1/His-Eya2 binding, biochemical; hits give low values; control for the full effect not named in the record | activity change, % (test concentration not listed) | 360,000 compounds, 0.56% hits | AID 651725, 2012; in the data active = activity change below about -65%; inconclusive = about -30% to -65%; inactive = above about -30%; further: on the % scale 0 is the no-effect control and ±100 the full control effect
#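 GST-Six1 + His-Eya2 (5X stock: 250/500 nM); Tris pH 8.0, 300 mM NaCl, 0.05% BSA, 0.02% Tween 20; GSH donor/Ni acceptor beads; 1 h 37 °C dark; AlphaScreen readout.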
# D2 potentiator = Beta-Arrestin HTS for Positive Allosteric Modulators of the Human D2 Dopamine Receptor: Potentiators. 360,000 compounds, 0.23% hits. potentiation, % (concentration not given with the values). AID 624464, 2012. D(2) dopamine receptor (Homo sapiens), P14416. DiscoveRx D2 beta-arrestin cells, luminescence, 90 min; 100% = 57 uM dopamine signal; active = potentiation of 50% or more; inconclusive = 30% to 50%; inactive = 30% or less;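 further: tested on top of an EC20 dose of dopamine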
# Target sequence (P14416 whole entry, looked up): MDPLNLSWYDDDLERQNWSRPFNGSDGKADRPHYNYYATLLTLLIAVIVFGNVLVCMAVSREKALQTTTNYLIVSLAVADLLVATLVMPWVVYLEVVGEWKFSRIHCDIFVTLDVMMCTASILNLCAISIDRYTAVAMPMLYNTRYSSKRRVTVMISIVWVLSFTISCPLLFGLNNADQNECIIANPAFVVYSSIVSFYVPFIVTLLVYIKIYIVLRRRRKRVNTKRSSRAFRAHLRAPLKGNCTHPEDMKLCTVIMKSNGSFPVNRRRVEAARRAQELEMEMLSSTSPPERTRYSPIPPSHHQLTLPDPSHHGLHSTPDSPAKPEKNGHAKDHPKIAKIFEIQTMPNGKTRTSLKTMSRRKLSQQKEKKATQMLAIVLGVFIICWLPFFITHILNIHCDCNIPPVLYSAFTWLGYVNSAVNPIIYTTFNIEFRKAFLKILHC
#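 D2 cells co-treated with compound plus 50 nM dopamine (EC20) for 90 min at 37 deg C to detect potentiation. Beta-arrestin recruitment was read as enzyme-fragment luminescence after 1 h at ambient temperature. Full response was set by 57 uM dopamine.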
# TRPML1 ag = qHTS for Agonists of the Human Mucolipin Transient Receptor Potential 1 (TRPML1) | Mucolipin-1 (Homo sapiens), Q9GZU1 | TRPML1-expressing cells, Ca2+ dye fluorescence, FDSS; host cell line not named in the record; reference of the full effect not given here | activation, % (test concentration not listed) | 410,000 compounds, 0.12% hits; in the data active = activation above about 50%; inconclusive = about 30% to 50%; inactive = below about 30%; further: 0% is about no effect; the text of the record puts the active cut at 80%
#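 Cells: TRPML1-DL, 1X Tet inducer, ~16 h at 37 degrees C/5% CO2. Dye: ABD Ca8 no-wash + quencher, 45-90 min RT. Read: 10 s baseline, compound add, 110 s agonist phase; 54-4 EC80 (4uM final), 110 s antagonist phase.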
# TRPV1 PAM = HTS Assay for Compounds that Act as Potentiators of the Vanilloid Receptor 1. Transient receptor potential cation channel subfamily V member 1 (Homo sapiens), Q8NER1. TRPV1-expressing cells, Fluo-8 calcium influx, capsaicin EC20 potentiation; host cell line not named in the record; control for the full effect not named in the record. potentiation, % at 8.33 µM. 320,000 compounds, 0.02% hits. AID 540277, 2011; active means potentiation above 80%; inconclusive means 30% to 80%; inactive means below 30%; further: 0% is about no effect
#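 Cells expressing TRPV1 were dye-loaded with Fluo-8 and read kinetically: 10 s baseline, 3 min after compound (agonist portion), then 2 min after EC20 capsaicin (allosteric enhancer portion). Calcium-bound dye fluorescence at 480/520 nm.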
# The depositor's hits bear a star; ? = inconclusive; . = not tested or not shown.
SMILES,CtBP-E1A inh,TRPML1 inh,Six1-Eya2 inh,D2 potentiator,TRPML1 ag,TRPV1 PAM
O=C(NCc1ccccc1)c1cc(C2CCCCN2C(=O)c2ccccc2)on1 (stereo unspecified),0,.,-8,-1,-0.5,.
CCn1c(COc2cccc(C)c2)nnc1SCC(=O)Nc1cccc(C(=O)OC)c1,-22,-20,-12,-3,2.9,-2
CCOC(=O)c1c(C)[nH]c(C2=NNC(=Nc3ccc(OCC)cc3)SC2)c1C,-1,22,?,0,2.1,3
O=C(NC(Cc1ccccc1)C(=O)O)/C(=C\c1ccc(F)cc1)NC(=O)c1ccccc1 (stereo unspecified),-3,3,-19,-16,-0.8,6
Cc1ccc2[nH]c(=O)c(CN(Cc3cccs3)C(=S)NCC3CCCO3)cc2c1 (stereo unspecified),-14,-15,-15,13,0.7,-18
Cc1cc(C)c(S(=O)(=O)N2CCN(C(=O)c3c(C)noc3C)CC2)c(C)c1,-1,-3,1,-2,0.3,7
Cc1ccc2nc(Nc3nc(CSc4nc5ccccc5s4)cc(=O)[nH]3)nc(C)c2c1,4,6,0,2,1.0,3
CCn1cc(/C=C/C(=O)Nc2c(C)nn(Cc3ccccc3)c2C)cn1,-2,?,1,16,1.1,8
CC1(C)C(=O)Nc2ccccc2N1C(=O)CSc1ncccn1,-5,-20,-1,-1,0.2,-2
COc1cc(/C=C2\CCc3c2nc2ccccc2c3C(=O)O)cc(OC)c1OC,.,0,-21,-7,-0.7,.
O=C(O)c1cccc(Cn2c(Cl)c(/C=N/NC(=O)c3ccco3)sc2=O)c1,-11,41,-2,-7,-0.5,-10
CCOC12NC(=O)CC(=O)N1C(c1ccccc1)=CS2 (stereo unspecified),-6,8,-5,6,-0.8,-22
Cc1ccc(-c2nnc3ccc(SCC(=O)NCc4ccco4)nn23)cc1,-11,4,-7,-4,0.6,7
Cc1cc(C(=O)Nc2sc3c(c2C#N)CCC3)no1,11,6,-1,-14,-0.2,-5
CCCC(=O)Nc1ccc(C(=O)COC(=O)c2c(C)noc2C)cc1,-1,-3,0,4,-0.4,26
Cc1c(C(=O)NCC2CCCO2)oc2ccc(S(=O)(=O)N3CCCC3)cc12 (stereo unspecified),0,23,0,14,-0.7,-10
CC(C)NC(=O)/C(=C\c1cccc([N+](=O)[O-])c1)NC(=O)c1ccccc1,0,18,3,-10,0.1,1
Cc1ccc(NC(=O)CN2CCc3cc4c(cc3C2C)OCCCO4)cc1 (stereo unspecified),-13,25,-4,-25,-0.2,-4
O=C(C[n+]1ccccc1)N/N=C/c1cc(Br)ccc1F,11,-7,-12,-33,0.2,13
CC1(C2CC2)NC(=O)NC1=O (stereo unspecified),0,49,4,-12,-0.8,?
CCCN1CCN(CC(=O)Nc2cc(OCC)ccc2OCC)CC1,.,16,-7,-9,3.5,16
O=C(CSc1ncccn1)N1CCCCCC1,5,8,5,-1,-0.2,.
CC1CCCN(CCCNC(=O)c2coc3nc4ccccc4nc23)C1 (stereo unspecified),9,3,-1,-31,0.0,-8
COc1ccc(NC(=O)Nc2cccc(C(=O)N3CCOCC3)c2)cc1OC,-10,-26,6,-14,0.4,1
CC1(C)C2CCC1(C)C(OCC[N+](C)(C)CC(=O)OC1CCCCC1)C2 (stereo unspecified),.,-4,2,-5,0.0,-2
# (listing goes on)
SMILES,CtBP-E1A inh,TRPML1 inh,Six1-Eya2 inh,D2 potentiator,TRPML1 ag,TRPV1 PAM
Cc1cc(OC(F)F)ccc1NC(=O)Nc1ccc2c(c1)OCO2,-7,2,0,-15,0.1,-2
Cc1cc(C)n(-c2ccc(-n3ccnc3)nn2)n1,9,3,3,2,0.1,-5
NC(=O)c1ccccc1O,2,-1,-3,4,-0.6,-6
N#CC1=C(N)C(C#N)(C#N)C2(C(=O)Nc3ccccc32)C2CCCC=C12 (stereo unspecified),7,-10,-14,?,0.7,6
COc1ccc(/C=N/NC(=O)c2cccc([N+](=O)[O-])c2)c2ccccc12,3,7,4,-3,0.4,-9
CC/C(=N\NC(=O)C1CCCC1)c1cccc(Br)c1,6,17,4,-17,2.4,0
O=C1CC(C(=O)Nc2ccc(Cl)cc2[N+](=O)[O-])C2(CCCCC2)O1 (stereo unspecified),-9,12,2,11,-0.3,-10
CCOC(=O)CNC(=O)C1c2cc(OC)c(OC)cc2C(=O)N(C)C1c1ccccc1F (stereo unspecified),6,4,1,-6,-0.8,-16
CC(=O)Nc1ccc(OCc2nnc(-c3ccccc3)o2)cc1,0,2,0,0,-0.2,5
COC(=O)[C@@]1(Cc2ccc(F)cc2)[C@H]2c3cc(C(=O)N4CCCC4)n(Cc4ccc(C(F)(F)F)nc4)c3C[C@H]2CN1C(=O)c1ccccc1,-24,79,-17,-9,1.8,11
O=C(CNC(=O)c1ccco1)Nc1ccc(Br)cc1,9,.,12,-10,.,-12
O=C(COC(=O)/C=C/c1cccs1)Nc1nc(-c2cccc(Br)c2)cs1,-2,-1,-3,5,0.9,11
O=C(COc1ccc(Cl)cc1)Nc1ccc2oc(-c3ccncc3)nc2c1,0,39,23,1,-1.0,-15
CC(=O)C1=C(O)C(=O)N(c2ccc(O)cc2)C1c1ccc(F)cc1 (stereo unspecified),-1,14,3,-12,0.4,5
NS(=O)(=O)c1cccc(NC(=O)COC(=O)c2ccc(S(=O)(=O)N3CCOCC3)cc2)c1,24,4,11,-1,-0.4,.
CCCN1C2CCCC1CC(NC(=O)c1cccc(OC)c1)C2 (stereo unspecified),-4,9,-5,-10,0.5,17
CCN(CC(=O)Nc1c(F)cccc1F)C(=O)C1CCN(C(=O)c2ccc(F)cc2)CC1,3,-14,0,-13,0.7,-2
O=C(O)c1ccc(S(=O)(=O)Nc2cccc(CP(=O)(c3ccccc3)c3ccccc3)c2)cc1,-10,-15,-10,-11,1.0,21
COc1ccc(CNC(=O)c2ccc[nH]2)cc1Cl,8,8,-5,-8,-0.6,-10
O=S(=O)(Cc1ccccc1)N1CCN(Cc2ccc3c(c2)OCO3)CC1,-2,-1,-4,-9,-0.6,-2
CCOc1cc(OCC)cc(C(=O)N2CCC[C@H]2C(=O)N2CCC[C@H]2C(=O)NCc2ccc(F)cc2F)c1,5,.,-2,.,-0.6,.
O=C(Cn1cnc2c(nnn2Cc2ccc(F)cc2)c1=O)NCc1ccc2c(c1)OCO2,2,19,4,-5,-0.2,?
CCc1nc2ccccc2c(NC(=O)CN2CCC(C)CC2)c1C,3,15,9,-21,0.8,4
CCOC(=O)C1=C(C)Nc2nc(SCc3cccnc3)nn2C1c1ccc(OC)cc1 (stereo unspecified),2,-12,4,-3,0.9,.
Cc1ccc(CNC(=O)CCS(=O)(=O)c2ccc3c(c2)NC(=O)CO3)cc1,1,17,2,-1,0.7,-3
# (more compounds)
SMILES,CtBP-E1A inh,TRPML1 inh,Six1-Eya2 inh,D2 potentiator,TRPML1 ag,TRPV1 PAM
CC(=O)c1c(Nc2ccc3c(c2)OCCO3)oc(C)cc1=O,-1,4,4,-2,0.5,.
CC(C)Cc1nc2ccc(N)cc2[nH]1,-11,4,3,?,-0.6,-22
CC12CCC(=O)N1C(C(=O)NNC(=O)c1ccc(Br)cc1)CS2 (stereo unspecified),0,-20,6,-9,1.4,-12
COc1ccc(OC)c(NC(=O)CSc2ncccn2)c1,-7,27,-3,8,0.8,9
Cc1ccc(NC(=O)CN(C)CC(=O)Nc2ccc3c(c2)OCO3)cc1,5,-4,-2,-8,-0.6,.
Cc1cn([C@H]2C[C@H](O)[C@@H](COS(=O)(=O)O)O2)c(=O)[nH]c1=O,-19,21,8,1,-0.5,.
CC(C)N(C(=O)Cn1c(SCC(=O)Nc2nccs2)nc2ccccc21)C(C)C,3,8,-3,-19,2.5,-12
CCN(CC)CCOC(=O)c1ccc(NC(=O)c2ccc(Cl)c(S(=O)(=O)N3CCCCCC3)c2)cc1,-20,57,-10,-26,0.5,-1
COc1ccc(/C=N\NS(=O)(=O)c2ccc(C)cc2)cc1COc1ccccc1[N+](=O)[O-],-11,4,-15,-9,1.1,0
CSCc1nc2scc(-c3ccccc3)c2c(=O)[nH]1,-5,-1,-5,-5,-0.6,0
O=C(O)c1cc(S(=O)(=O)N2CCN(c3ccccn3)CC2)ccc1Cl,6,-6,6,-15,-0.7,6
N#Cc1c(Nc2ccc(F)cc2)sc(C(=O)c2ccc(F)cc2)c1N,9,9,-1,5,1.2,10
CCN1C(=O)/C(=C\c2cn(-c3ccccc3)nc2-c2cccnc2)SC1=S,1,1,-10,-11,-0.4,11
COc1cccc(Nc2nnc(SCC(=O)N3CCOCC3)s2)c1,-17,-19,-7,-12,0.9,10

# In the list so far, eight contain two or more sulfur atoms:
SMILES,CtBP-E1A inh,TRPML1 inh,Six1-Eya2 inh,D2 potentiator,TRPML1 ag,TRPV1 PAM
Cc1ccc2[nH]c(=O)c(CN(Cc3cccs3)C(=S)NCC3CCCO3)cc2c1 (stereo unspecified),-14,-15,-15,13,0.7,-18
Cc1ccc2nc(Nc3nc(CSc4nc5ccccc5s4)cc(=O)[nH]3)nc(C)c2c1,4,6,0,2,1.0,3
O=C(COC(=O)/C=C/c1cccs1)Nc1nc(-c2cccc(Br)c2)cs1,-2,-1,-3,5,0.9,11
NS(=O)(=O)c1cccc(NC(=O)COC(=O)c2ccc(S(=O)(=O)N3CCOCC3)cc2)c1,24,4,11,-1,-0.4,.
CC(C)N(C(=O)Cn1c(SCC(=O)Nc2nccs2)nc2ccccc21)C(C)C,3,8,-3,-19,2.5,-12
CSCc1nc2scc(-c3ccccc3)c2c(=O)[nH]1,-5,-1,-5,-5,-0.6,0
CCN1C(=O)/C(=C\c2cn(-c3ccccc3)nc2-c2cccnc2)SC1=S,1,1,-10,-11,-0.4,11
COc1cccc(Nc2nnc(SCC(=O)N3CCOCC3)s2)c1,-17,-19,-7,-12,0.9,10

# Compounds as they come. Share with any hit: about 0.95%.
